CSC inhib – cancer stem cell viability inhibitors, primary screen, luminescence; cancer stem cell-like cells viability; inhibition, % at 7.5 µM; 1.1% of 300,000 active; AID 2717, 2010;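 active = mean at 75% or more and at least half the replicates too; inconclusive = mean and replicates disagree; tested in HMLE shEcad cells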;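 also: 0% = median of negative and 100% = median of positive control wells; the first replicate is given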
MT1-MMP act inh – blockers of MT1-MMP proenzyme processing, primary screen, HT1080 RFP-PRO-GFP cells, GFP/RFP fluorescence. Matrix metalloproteinase-14 (Homo sapiens), P50281. GFP/RFP ratio fluorescence, overnight; percent of plate control window, DMSO zero. GFP/RFP ratio change, % at 20 µM. 0.061% of 360,000 active. AID 651647, 2012;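 active = GFP/RFP ratio change of at least 30% with cell ATP level not reduced by more than half and red fluorescence within 50% of control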; also: strong numbers were not always called active
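Test system: HT1080 cells expressing an RFP-PRO-GFP fluorescent reporter construct / Compound dosing: single-point 20 µM compound, 1% DMSO / Schedule: cells overnight before dosing, compound overnight, 37 °C, 5% CO2 / Evaluation: GFP/RFP fluorescence ratio / Control set: DMSO and RFP-L50D-GFP cell wells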
Yeast UUG start – modulators of yeast start codon fidelity, primary screen, whole organism, S. cerevisiae, single point, plate reader | activity score, % at 18.7 µM | AID 602363, 2012 | 0.13% of 350,000 active | S. cerevisiae UUG-firefly luciferase reporter, luminescence/redox ratio;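 active = replicate mean at a twofold rise or more, about +100% in these data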;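 also: firefly luciferase made from a UUG start codon reports start codon fidelity; reporter light over untreated wells divided by growth signal over untreated wells; some hits fall short of that in this replicate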
eIF4H FP inh – human eIF4H binding inhibitors, primary screen, translation initiation inhibitor project, biochemical, uHTS, fluorescence polarization; Eukaryotic translation initiation factor 4H (Homo sapiens), Q15056; eIF4H fluorescence polarization binding assay; inhibition, % at 35 µM; 0.94% of 290,000 active; AID 2012, 2009;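 active = 50% or more with normal probe brightness, or confirmed in later tests; inconclusive = above 50% with abnormal brightness, or retests that disagree; inactive = below 50% or failed in later tests; about a fifth of its hits are not listed in these tables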;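 also: calls also rest on retests at 20 µM and on dose response follow-up; 0% = protein and probe with vehicle and 100% = probe without protein; strong numbers were not always called active; many hits fall short of the cut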
Rce1 inhib – yeast Rce1p protease inhibitors, primary screen, biochemical, fluorescence, cell-free homogeneous | calls only | 0.27% of 290,000 active | yeast membranes, quenched prenylated peptide cleavage fluorescence;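 active = fall in fluorescence gain of 50% or more versus controls, with final raw signal at or below 3038400; inconclusive = same 50% fall but final raw signal above 3038400; inactive = fall in fluorescence gain under 50%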;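 also: plate controls were neutral control wells for no effect and wells lacking membranes for full effect; tested at 10 µM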
Target sequence (Q03530 whole entry, looked up): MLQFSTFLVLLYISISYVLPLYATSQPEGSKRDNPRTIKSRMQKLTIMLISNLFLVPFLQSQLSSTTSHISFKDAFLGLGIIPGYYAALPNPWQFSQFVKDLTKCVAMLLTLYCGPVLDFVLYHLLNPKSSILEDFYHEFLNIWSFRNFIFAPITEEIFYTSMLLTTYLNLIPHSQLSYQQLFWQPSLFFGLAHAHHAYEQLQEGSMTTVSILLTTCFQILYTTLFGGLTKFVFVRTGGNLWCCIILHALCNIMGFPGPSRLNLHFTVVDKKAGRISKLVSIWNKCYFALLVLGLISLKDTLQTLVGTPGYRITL
Env fusion inh – inhibitors of HIV-1 Env-driven cell-cell fusion, primary screen, HeLa-JRFL effector, CEM21 target cells, luciferase. inhibition, % at 12.3 µM. 1.1% of 360,000 active;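 active = mean replicate inhibition score of at least 50 and every replicate individually at or above 50; inconclusive = only one of the two criteria met; inactive = mean below 50 and not all replicates reaching 50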;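 also: 0% = plate neutral controls and 100% = maraviroc near 300 nM; one replicate is shown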
PABP polyA inh – PABP poly(A) RNA binding inhibitors, primary screen, biochemical, fluorescence polarization, uHTS; inhibition, % at 35 µM; 1% of 290,000 active;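 active = 50% or more with normal probe brightness, or confirmed in later tests; inconclusive = above 50% with abnormal brightness, or retests that disagree; inactive = below 50% or failed in later tests; about a fifth of its hits are not listed in these tables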;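 also: calls also rest on retests at 20 µM and on dose response follow-up; controls were probe without protein and protein plus probe with vehicle; some compounds called inactive have numbers as strong as hits; many hits fall short of the cut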
Target sequence (P11940 whole entry, looked up): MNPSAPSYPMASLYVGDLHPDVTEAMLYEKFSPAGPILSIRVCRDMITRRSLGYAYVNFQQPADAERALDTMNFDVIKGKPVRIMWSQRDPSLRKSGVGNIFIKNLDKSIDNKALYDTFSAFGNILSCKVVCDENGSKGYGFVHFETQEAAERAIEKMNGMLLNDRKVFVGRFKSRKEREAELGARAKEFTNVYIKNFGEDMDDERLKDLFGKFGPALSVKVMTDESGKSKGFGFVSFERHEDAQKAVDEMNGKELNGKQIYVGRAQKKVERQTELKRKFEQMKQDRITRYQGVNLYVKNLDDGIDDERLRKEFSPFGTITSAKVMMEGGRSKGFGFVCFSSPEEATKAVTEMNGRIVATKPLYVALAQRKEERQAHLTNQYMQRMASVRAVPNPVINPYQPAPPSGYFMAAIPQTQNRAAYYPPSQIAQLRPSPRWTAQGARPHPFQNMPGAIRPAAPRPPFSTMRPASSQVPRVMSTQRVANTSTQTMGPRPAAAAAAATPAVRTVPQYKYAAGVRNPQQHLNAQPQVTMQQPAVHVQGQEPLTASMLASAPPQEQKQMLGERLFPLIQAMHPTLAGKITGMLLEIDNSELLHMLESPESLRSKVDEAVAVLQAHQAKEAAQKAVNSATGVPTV
eIF4H FP inh retest – further read-out of eIF4H FP inh, marked with its call; inhibition, %; compound at 20 µM; confirmation average;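 mean of two retest wells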
PABP polyA inh retest – recorded beside PABP polyA inh, whose call it bears; inhibition, %; compound at 20 µM; confirmation repeats;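 mean of two retest wells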
MT1-MMP act inh RFP – recorded beside MT1-MMP act inh, whose call it bears; RFP signal change, %; measured here: RFP expression control read;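 0 = vehicle wells; hits needed this value within 50% of zero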
* hit, by the source's call; i = inactive; ? = inconclusive; . = not tested or not shown; & = joins results of further samples. Hits appear at their usual frequency; any-hit rate near 2.9%.

SMILES	CSC inhib	MT1-MMP act inh	MT1-MMP act inh RFP	Yeast UUG start	eIF4H FP inh	Rce1 inhib	Env fusion inh	PABP polyA inh	others
COc1ccc(NC2CCCN(C(=O)c3ccc(OC)cc3OC)C2)cc1 (stereo unspecified)	5	-5	-3	-1	0	i	-5	-3
Cc1cc2nc(C)n(CCCNC(=O)Nc3ccc(F)cc3)c2cc1C	-7	23	4	-1	-3	i	6	-6
CC1CN=C(NC(=O)c2cccc([N+](=O)[O-])c2)S1 (stereo unspecified)	-16	11	-5	-15	9	i	-60	10
COc1cccc(N2CCN(c3ccc(S(=O)(=O)N4CCCC4)cc3)CC2)c1	.	7	-7	-15	-3	.	.	-8
CNc1cc(-c2ccc(OC)nc2)ncn1	.	4	5	-8	.	.	-40	.
Cc1ccccc1NC(=O)C(=O)NCCc1ccccc1	-3	2	8	.	4	i	-9	-15
Cn1cc(Br)c(C(=O)NNC(=O)c2ccccc2)n1	1	4	3	-3	3	i	-17	122	eIF4H FP inh retest=8;PABP polyA inh retest=-2
O=C(Nc1ccc(N2C(=O)c3cccc4cccc(c34)C2=O)cc1)c1ccc(N2CCCCC2)c([N+](=O)[O-])c1	9	7	3	-7	-3	i	-3	-15
Cc1cccc(NC(=O)CSc2nnc3ccc(-c4ccccn4)nn23)c1	16	6	0	.	.	i	36	.
O=C(/C=C/c1cccc([N+](=O)[O-])c1)NCCN1C(=O)S/C(=C\c2ccc(F)cc2)C1=O	-30	11	3	-13	-13	i	.	-6
O=S(=O)(CCN1CCOCC1)c1ccc(Cl)cc1	-4	0	2	.	.	i	10	.
O=C(c1ncc[nH]1)c1ccco1	-12	8	0	-7	-2	i	13	-4
O=S(=O)(c1cccc2cccnc12)N1CCN(Cc2ccccc2)CC1	-14	4	2	.	2	i	-16	2
O=C(Cc1ccc(Cl)cc1)N/N=C/c1c(Cl)cccc1Cl	11	-2	4	4	-5	i	2	4
O=C(c1cccc(C(F)(F)F)c1)C1CCCN(C(=O)c2cc(C3CC3)[nH]n2)C1 (stereo unspecified)	-8	3	-8	-2	-6	i	-2	-2
Cc1ccc(CC(=O)N/N=C/c2ccc3c(c2)OCO3)cc1	12	-4	-3	.	0	i	-7	0
Cc1nn(C)cc1CN(C)S(=O)(=O)c1cccc([N+](=O)[O-])c1	-12	1	-4	.	-3	i	17	-11
CC(=O)CSc1nc2c(c(=O)[nH]c(=O)n2C)n1Cc1ccccc1Cl	-5	-3	-2	-12	-6	i	4	-2
c1cnn2c(-c3ccc4c(c3)CCO4)cnc2c1	.	-9	-9	-22	.	.	-13	.
Cc1c(CCC(=O)N[C@@H](CC(C)C)C(=O)O)c(=O)oc2c(C)c3oc4c(c3cc12)CCCC4	-2	3	-1	-7	4	i	10	10
COc1cc(C(=O)O)ccc1O	-17	-1	2	-17	-8	i	3	11
Cc1ccc(-n2c(CSc3nc(C)cc(C)n3)nnc2SCC(=O)NCc2ccco2)cc1	-8	-4	1	-13	3	i	-47	3
COc1ccc(CNC(=O)CN2C(=O)CSc3ccc(S(=O)(=O)N4CCOCC4)cc32)cc1	0	-2	0	-2	-7	i	-10	2
CC(C)CNS(=O)(=O)c1ccc(CCC(=O)O)cc1	-18	5	8	-2	-2	i	.	10
CC(=O)Nc1ccc(SC[C@H](C)CN2CC[C@H](C(C)(C)C)CCC2=O)cc1	102*	1	-6	-1	.	.	0	.

(next part)
SMILES	CSC inhib	MT1-MMP act inh	MT1-MMP act inh RFP	Yeast UUG start	eIF4H FP inh	Rce1 inhib	Env fusion inh	PABP polyA inh	others
CSC(=NC#N)N1CCN(c2c(C)cccc2C)CC1	-3	-1	-8	-18	7	i	1	5
CN1CCN(C(=O)c2ccccc2NC(=O)c2cccs2)CC1	-4	6	7	17	-1	i	.	7
CCn1nc(NS(=O)(=O)c2cccc3nonc23)c2cc3ccc(C)cc3nc21	9	6	3	1	-9	i	.	26
C=CCOc1cccn2c(N(C=O)Cc3ccc(OC)cc3)c(CC)nc12	.	1	-3	-1	.	.	25	.
COc1cc(C(=O)Nc2ccc(C)cn2)ccc1OCC(=O)N1CCOCC1	-5	2	-1	-11	.	.	-5	.
S=c1nc(-c2ccccc2)n(CCN2CCOCC2)c2c1CCCC2	.	5	2	-12	-5	i	7	0
COc1ccc(NC(=O)COc2ccc3c(c2)OCO3)cc1	-2	2	2	-11	-3	i	3	-1
CN(C)C(=O)CCC(=O)N1CCCC(N2CCN(c3cccc(C(F)(F)F)c3)CC2)C1 (stereo unspecified)	0	6	1	-2	-4	i	-1	10
C[C@@H]1CCCCO[C@@H](CN(C)C(=O)Cc2ccccc2)[C@@H](C)CN([C@H](C)CO)C(=O)c2cc(N(C)C)ccc2O1	.	-3	0	-8&-6	.	.	-27	.
Cc1cccc(NC(=O)C2CCN(S(=O)(=O)c3ccc4c(c3)OCCO4)CC2)n1	-12	3	-7	-8	.	i	.	.
CC1CCOC2(O1)C(=O)N(CN1CCN(c3cccc(Cl)c3)CC1)c1ccccc12 (stereo unspecified)	-2	-5	2	-14	-8	i	.	-10
COc1ccc(-c2oc3ccccc3c2C(=O)Oc2ccccc2)cc1	3	0	-1	-18	-3	?	.	-6
COc1ccc(NC(=O)C2CCOC(C)(C)C2)cc1 (stereo unspecified)	-8	0	2	-9	-10	i	-9	-1
CCC(C)[C@H](NC(=O)Nc1cccc(OC)c1)C(=O)OC (stereo partly specified)	-16	-4	-5	4	-5	i	-23	5
CN(C(=O)c1cccc(NC(=O)Cc2ccc(NC(=O)C3CCCN(S(=O)(=O)c4cccc([N+](=O)[O-])c4)C3)cc2)c1)C1CCC1 (stereo unspecified)	.	-1	-18	-10	.	.	30	.
Cc1ccc(/C=C/C(=O)c2c(C)nc3ccccn23)cc1	47	-18	-24	-37	9	i	-219	-3
CCOc1ccc(S(=O)(=O)Nc2ccccc2C(=O)N2CCCC2)cc1	-8	3	6	14	-11	i	-7	-9
CN(C)S(=O)(=O)c1ccc(C(=O)Nc2cc(=O)n(C)c(=O)n2C)cc1	-6	9	6	-2	-6	i	3	1
N#Cc1ccc(OCC(=O)OCC(=O)NC2CC2)cc1	-11	0	0	7	.	.	.	.
C[C@H](CO)N1C[C@H](C)[C@@H](CN(C)C(=O)Nc2ccc3c(c2)OCO3)Oc2c(NC(=O)Nc3ccc(C(F)(F)F)cc3)cccc2C1=O	39	-15	-8	10	.	.	23	.
Cc1ccc(C)c(Nc2c([N+](=O)[O-])cc(C(=O)N3CC(=O)Nc4ccccc43)cc2[N+](=O)[O-])c1	7	-28	-40	.	2	i	.	3
CC(=O)Nc1ccc2c(c1)C(=O)N(c1cccc(C)c1)C2=O	3	2	1	.	-4	i	3	0
COc1ccc(-c2c[n+](CC(=O)c3ccccc3)c3n2CCCCC3)cc1	13	-2	-21	.	-6	i	5	0
CN(C)S(=O)(=O)c1ccc(N2CCCC2)c(C(=O)OCC(=O)NC2CCCCC2)c1	-7	2	-1	-15	.	i	6	.
CC(C)C12CN3CC(C(C)C)(CN(C1)C3c1ccc3c(c1)OCO3)C2=O (stereo unspecified)	8	-3	-3	20	-7	i	.	2

By substructure, the compounds so far containing a CF3 group.
SMILES	CSC inhib	MT1-MMP act inh	MT1-MMP act inh RFP	Yeast UUG start	eIF4H FP inh	Rce1 inhib	Env fusion inh	PABP polyA inh	others
O=C(c1cccc(C(F)(F)F)c1)C1CCCN(C(=O)c2cc(C3CC3)[nH]n2)C1 (stereo unspecified)	-8	3	-8	-2	-6	i	-2	-2
CN(C)C(=O)CCC(=O)N1CCCC(N2CCN(c3cccc(C(F)(F)F)c3)CC2)C1 (stereo unspecified)	0	6	1	-2	-4	i	-1	10
C[C@H](CO)N1C[C@H](C)[C@@H](CN(C)C(=O)Nc2ccc3c(c2)OCO3)Oc2c(NC(=O)Nc3ccc(C(F)(F)F)cc3)cccc2C1=O	39	-15	-8	10	.	.	23	.

Three structures from above, ordered by number of heavy atoms, falling.
SMILES	CSC inhib	MT1-MMP act inh	MT1-MMP act inh RFP	Yeast UUG start	eIF4H FP inh	Rce1 inhib	Env fusion inh	PABP polyA inh	others
C[C@H](CO)N1C[C@H](C)[C@@H](CN(C)C(=O)Nc2ccc3c(c2)OCO3)Oc2c(NC(=O)Nc3ccc(C(F)(F)F)cc3)cccc2C1=O	39	-15	-8	10	.	.	23	.
Cc1c(CCC(=O)N[C@@H](CC(C)C)C(=O)O)c(=O)oc2c(C)c3oc4c(c3cc12)CCCC4	-2	3	-1	-7	4	i	10	10
CC(C)CNS(=O)(=O)c1ccc(CCC(=O)O)cc1	-18	5	8	-2	-2	i	.	10

Back to the main list; the 4 compounds before the break are reprinted first.
SMILES	CSC inhib	MT1-MMP act inh	MT1-MMP act inh RFP	Yeast UUG start	eIF4H FP inh	Rce1 inhib	Env fusion inh	PABP polyA inh	others
CC(=O)Nc1ccc2c(c1)C(=O)N(c1cccc(C)c1)C2=O	3	2	1	.	-4	i	3	0
COc1ccc(-c2c[n+](CC(=O)c3ccccc3)c3n2CCCCC3)cc1	13	-2	-21	.	-6	i	5	0
CN(C)S(=O)(=O)c1ccc(N2CCCC2)c(C(=O)OCC(=O)NC2CCCCC2)c1	-7	2	-1	-15	.	i	6	.
CC(C)C12CN3CC(C(C)C)(CN(C1)C3c1ccc3c(c1)OCO3)C2=O (stereo unspecified)	8	-3	-3	20	-7	i	.	2
Cc1noc(C)c1C(=O)OCC(=O)Nc1cc(S(=O)(=O)N2CCOCC2)ccc1Cl	-5	.	.	.	-10	i	.	-5
Cc1ccc(OCC(=O)NNC(=S)NC(=O)C2CC2)c(C)c1	0	3	2	-21	-2	i	46	-5
N#Cc1nc(-c2ccccc2)oc1NCCCn1ccnc1	7	3	-1	-26	10	i	-23	-3
CCOc1ccc(S(=O)(=O)N(CC(=O)NCC(F)(F)F)Cc2ccco2)cc1	.	3	4	.	4	i	.	8
COC(OC)c1ccc(C#N)c(=O)[nH]1	2	-3	3	.	-2	?	2	?
C/C(O)=C(\N=Nc1cc(C)ccc1O)C(N)=O	-1	-4	-3	.	-7	i	-70	-9
CCN1CCc2c(sc(NC(=O)CN3C(=O)c4ccccc4C3=O)c2C(N)=O)C1	-2	0	2	-20	-6	i	-6	-3
O=C(Nc1ccccc1N1CCN(c2ccccc2)CC1)c1cccc(F)c1	30	2	-3	-10	-10	i	.	8
COc1ccc(C)cc1NC(=O)CO/N=C(\N)CC(=O)NC1CCCCC1	-4	-3	2	-16	.	.	6	.
CCC(C(=O)OCC(=O)Nc1ccccc1-c1ccccc1)c1ccccc1 (stereo unspecified)	-7	-3	-6	-1	-10	i	34	0
COC(CNC(=O)c1ccc(-n2c(=S)[nH]c3ccccc3c2=O)cc1)OC	-6	3	1	-16	-10	i	-5	19
COc1cc(OC)cc(C(=O)OCC(=O)c2cc(C)n(CC3CCCO3)c2C)c1 (stereo unspecified)	-18	7	-6	-3	.	.	21	.
O=C(CSc1nc(C(F)(F)F)cc(=O)[nH]1)N1CCOCC1	-24	-10	-6	.	.	i	.	.
C/C(CC(=O)Nc1ccc(Cl)cc1)=N\NC(=O)C(=O)NCCO	-7	-10	-5	-31	-1	i	-12	-6

Source: PubChem (several laboratories)
